AmpC nodet inh – inhibitors of E. coli AmpC beta-lactamase without detergent; AID 585; Potency, µM (series often up to 28.7 µM), inactives show at the top dose activity change, negative = inhibition; actives 1.8% (n = 71,000); AmpC nitrocefin hydrolysis, absorbance 480 nm, no detergent; potencies from a single point are estimates; P00811; active = falling curve, for most hits resting on a single point; inconclusive = weak or doubtful change; inactive = flat or rising curve; note: % of control where 0% means no effect; about half of the hits show no inhibition at the top dose; a quarter of the inactives give rising signals
Target sequence (P00811 whole entry, looked up): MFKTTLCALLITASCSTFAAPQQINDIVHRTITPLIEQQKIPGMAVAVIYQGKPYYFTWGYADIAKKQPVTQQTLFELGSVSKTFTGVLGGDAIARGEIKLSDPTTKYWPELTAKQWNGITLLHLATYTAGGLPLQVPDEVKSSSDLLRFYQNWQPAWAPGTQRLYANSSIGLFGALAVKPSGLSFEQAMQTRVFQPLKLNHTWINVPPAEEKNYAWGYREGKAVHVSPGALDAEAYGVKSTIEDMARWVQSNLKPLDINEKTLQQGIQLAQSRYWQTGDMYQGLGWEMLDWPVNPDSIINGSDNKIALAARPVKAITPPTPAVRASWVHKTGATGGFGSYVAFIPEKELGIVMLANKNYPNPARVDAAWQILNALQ
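Enzyme, pH 7.0 phosphate. Compound titrations were pre-incubated with AmpC for 15 min at room temperature before nitrocefin (stock 800 uM) addition; product formation was recorded at 480 nm every 20 s for 4 min.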
Active calls of the source: *; ? = inconclusive; & = joins results of further samples; [ ] = dose if it differs, or a comment. Potency is the fitted concentration of half-maximal effect.

SMILES | AmpC nodet inh
Cc1cccc(Nc2nc(N)nc(CN3CCN(c4ccc(F)cc4)CC3)n2)c1 | 87%
Cc1cc(NC(=O)CN2CCc3ccccc3C2)nc2c1c(=O)oc1ccccc12 | 4%
CCOC(=O)Cn1c(=O)c2c(nc(Br)n2Cc2ccc(Cl)cc2)n(C)c1=O | 83%
Cc1nn(Cc2ccc(Cl)c(Cl)c2)c(C)c1NC(=O)c1noc2c1CCCCC2 | 63%
CCOC(=O)C1=C(c2ccccc2)N2CCN=C2S1 | 6%
c1ccc(CCCc2nc(-c3ccccn3)no2)cc1 | 14%
COc1cc2nc(NC(=O)c3ccccc3)[nH]c(=O)c2cc1OC | 36%
COc1cc(C2C3=C(CC(c4ccco4)CC3=O)Nc3ccccc3N2C(C)=O)cc(OC)c1OC (centres undefined) | 42%
Cc1cc(-c2ccccc2)nc2cc(C(=O)NCCCn3ccnc3)nn12 | 28%
CCN(CC)CCC[C@H](C)Nc1c2ccc(Cl)cc2nc2ccc(OC)cc12 | 11%[12.8 µM]
N[C@H](Cc1ccc(Cl)cc1)C(=O)O | 0%&-1%
CC(C)(C)c1csc(NC2=NS(=O)(=O)c3ccccc32)n1 | -14%

7 structures out of the list, sorted by formula weight, smallest number first:
SMILES | AmpC nodet inh
N[C@H](Cc1ccc(Cl)cc1)C(=O)O | 0%&-1%
c1ccc(CCCc2nc(-c3ccccn3)no2)cc1 | 14%
CC(C)(C)c1csc(NC2=NS(=O)(=O)c3ccccc32)n1 | -14%
Cc1cc(-c2ccccc2)nc2cc(C(=O)NCCCn3ccnc3)nn12 | 28%
Cc1cccc(Nc2nc(N)nc(CN3CCN(c4ccc(F)cc4)CC3)n2)c1 | 87%
Cc1cc(NC(=O)CN2CCc3ccccc3C2)nc2c1c(=O)oc1ccccc12 | 4%
CCN(CC)CCC[C@H](C)Nc1c2ccc(Cl)cc2nc2ccc(OC)cc12 | 11%[12.8 µM]

Remaining list, next part.
SMILES | AmpC nodet inh
CCOC(=O)C1CCN(c2cc(C)nc3cc(-c4cccc(F)c4)nn23)CC1 | 103%
Cc1ccc(S(=O)(=O)Cc2ccc(C(=O)N3CCN(c4cc(C)ccc4C)CC3)o2)cc1 | 80%
O=C(CCC(=O)Nc1ccc(Oc2ccccc2)cc1)NCCO | 20%
N#CC(O)c1ccccc1 (centres undefined) | -3%
O=C(Nc1ccc2c(c1)OCCO2)C1CCN(C(=O)c2ccc(Br)cc2)CC1 | 51%
CCOc1ccc(-c2nc(C#N)c(N3CCN(Cc4ccccc4)CC3)o2)cc1 | 61%
c1cc2c(cc1C(N1CCNCC1)N1CCNCC1)OCO2 | -3%[5.75 µM]
COc1cc(C(=O)OCC(=O)c2cc(C)n(C)c2C)cc(NC(=O)c2ccco2)c1OC | 86%
Cc1ccc(C2=N/C(=C/N3CCOCC3)C(=O)O2)cc1 | 21%
O=C(c1cnc2sccn2c1=O)N(Cc1ccccc1)c1ccccn1 | 21%
O=C(CCCN1C(=O)CCC1=O)Nc1ccc2c(c1)OCCO2 | -2%
Cc1ccc2cc(C#N)c(SCC(=O)NCC3CCCO3)nc2c1C (centres undefined) | -6%
CC(=O)Oc1c(S(=O)(=O)c2ccc(C)cc2)c(C)nn1-c1ccccc1 | -8%
C[N+]1(CCN=C=NC2CCCCC2)CCOCC1 | -2%[5.75 µM]
CC(C)CCN1CC(C(=O)NCc2ccccc2)CC1=O (centres undefined) | 2%
COc1ccc2[nH]cc(CCNc3ncnc4ccc(-c5cccc(C#N)c5)cc34)c2c1 | 4%
O=C(NC1CCCCC1)C1CCCN(S(=O)(=O)c2cnc[nH]2)C1 (centres undefined) | -4%
CC1CCN(Cc2ccc(NC(=O)C3CCN(c4nnc(-n5cccc5)s4)CC3)cc2)CC1 | 52%
CC12CN3CC(C)(CN(C1)C3c1ccc(Br)cc1)C2=O (centres undefined) | -4%
O=C(NCC1CCCO1)C1CC(c2ccc(Cl)c(Cl)c2)=NO1 (centres undefined) | 38%
CC1Cc2nc(SCC(=O)Nc3ccccc3F)n(C)c(=O)c2S1 (centres undefined) | -2%
COCC(=O)Oc1c(S(=O)(=O)c2ccc(C)cc2)c(C)nn1-c1ccccc1 | -11%
O=C(NCCc1ccccc1)c1ccncc1 | -4%
CCc1nn(CC(=O)NCCCN2CCc3ccccc3C2)c(=O)c2cc3sccc3n12 | 83%
CCOC(=O)c1sc(NC(=O)c2ccc3ncsc3c2)nc1C | 37%
CCc1ccccc1NS(=O)(=O)c1ccc(SC)cc1 | -1%
CCn1c(N)c(C(=O)NCCCOC)sc1=S | 9%
CCCc1[nH]nc2c1C1(C(=O)N(CC)c3ccccc31)C(C#N)=C(N)O2 (centres undefined) | 15%
NC(=O)c1ccc(-n2nnnc2SCC(=O)Nc2ccc(N3CCOCC3)c(Cl)c2)cc1 | 2%
CC(=O)Nc1ccc(S(=O)(=O)N=S(C)C)cc1 | 3%[5.75 µM]
COc1ccc(C2C3=C(CC(C)(C)CC3=O)Oc3ncn(Cc4ccco4)c(=N)c32)cc1 (centres undefined) | 61%
COc1ccc(-c2ccc(-c3noc(-c4ccco4)n3)c(OC)n2)cc1 | 18%
O=C(COc1ccc(S(=O)(=O)N2CCCC2)cc1)NCCC1=CCCCC1 | 53%
C[C@@H]1CCCC(CC(=O)O)(CC(=O)O)C1 | -2%[5.75 µM]
O=S(=O)(c1cccc2c(I)cccc12)N1CCCNCC1 | 42%
[O-][n+]1c2c(nn1-c1ccccc1Cl)-c1nonc1CC2 | -2%
O=Cc1ccc(CO)o1 | -5%
COc1cccc(C2CC(c3ccc(C)cc3)n3ncnc3N2)c1 (centres undefined) | 68%
[CH3][Hg][Cl] | -13%
O=C(CCCC(=O)N(CC(=O)NC1CCCC1)Cc1ccc2c(c1)OCO2)Nc1ccccn1 | 28%
Cc1nn(C)c(C)c1CNC(=O)c1cc2n(n1)C(C(F)(F)F)CC(c1cccs1)N2 (centres undefined) | 123%
O=C1Nc2ccc(S(=O)(=O)NCc3ccccn3)c3cccc1c23 | -2%
Cn1c(C(=O)NCCCN2CCCC2=O)cc2c(=O)n(C)c3ccccc3c21 | 122%
Cn1c(-c2ccc3c(c2)OCO3)cnc1N | 20%
O=C(CC1=NCCNC(c2ccccc2)C1)c1ccccc1O (centres undefined) | 86%
Cc1nc2ccc(C(=O)O)cc2c2c1CC(C)S2 (centres undefined) | -6%
CC(C)OCCCNC(=O)c1ccc(N(C)S(C)(=O)=O)cc1 | 4%
CCOC(=O)C1(c2csc(N)n2)COC(=O)C1 (centres undefined) | -4%

Filtered by structure: the entries above containing an NH in an aromatic ring
SMILES | AmpC nodet inh
COc1cc2nc(NC(=O)c3ccccc3)[nH]c(=O)c2cc1OC | 36%
COc1ccc2[nH]cc(CCNc3ncnc4ccc(-c5cccc(C#N)c5)cc34)c2c1 | 4%
O=C(NC1CCCCC1)C1CCCN(S(=O)(=O)c2cnc[nH]2)C1 (centres undefined) | -4%
CCCc1[nH]nc2c1C1(C(=O)N(CC)c3ccccc31)C(C#N)=C(N)O2 (centres undefined) | 15%

More entries
SMILES | AmpC nodet inh
COC(=O)Nc1ccc(S(=O)(=O)N2CCCc3ccccc32)cc1 | -4%
O=C(Nc1ccccc1)OCC1CCCN2CCCCC12 (centres undefined) | -6%
O=C(CCC1CCCCC1=O)c1ccccc1 (centres undefined) | 0%
COC(=O)CCN(c1ccccc1)S(=O)(=O)c1ccc(OC)cc1 | 17%
COc1ccc2sc(NC(=O)CC(C)C)nc2c1 | -18%
CCSc1nnc(C)n1-c1ccc(C(=O)O)cc1 | -8%
CS(=O)(=O)N(CC(=O)NCc1ccc2c(c1)OCO2)Cc1ccc(Cl)cc1 | 25%
CCS(=O)(=O)N1CCC[C@H]2CN3CCc4cc(OC)ccc4[C@@H]3C[C@@H]21 | 26%
O=C(N1CCOCC1)N(Cc1ccco1)CC1CCCO1 (centres undefined) | -17%
COC(=O)CCS(=O)(=O)c1ccc(Cl)c(Cl)c1 | 11%
Cc1cccc(NC(=O)Cn2cnc3ccc(S(=O)(=O)N4CCC(C)CC4)cc3c2=O)n1 | 60%
Cc1cccc(-c2nnn(CC/C(N)=N/O)n2)c1 | -12%

Laid out differently: results already given
| molecule | AmpC nodet inh |
| --- | --- |
| CCn1c(N)c(C(=O)NCCCOC)sc1=S | 9% |
| O=C(Nc1ccc2c(c1)OCCO2)C1CCN(C(=O)c2ccc(Br)cc2)CC1 | 51% |
| O=C1Nc2ccc(S(=O)(=O)NCc3ccccn3)c3cccc1c23 | -2% |
| O=C(NC1CCCCC1)C1CCCN(S(=O)(=O)c2cnc[nH]2)C1 (centres undefined) | -4% |

Following part.
SMILES | AmpC nodet inh
CCN1C(=O)c2ccc(C(=O)O)cc2C1=O | 7%
COC(=O)c1ccc(CSc2nc3c(cnn3-c3ccc(F)cc3)c(=O)[nH]2)o1 | 0%
COC(=O)Cc1c(C)nc2nc(Cc3ccccc3)[nH]n2c1=O | -2%
COc1ccc(-c2nn3cnnc3s2)cc1OC | 4%
O=C(NCCCn1ccnc1)c1cn(-c2ccccc2)nc1-c1ccccc1 | 62%
O=C(COC(=O)Cn1cnc2ccccc21)NCCc1ccccc1 | -4%
COc1ccc(CN2CC(C(=O)NCCCN3CCN(Cc4ccccc4)CC3)CC2=O)cc1 (centres undefined) | 56%
CSc1nc(N2CCN(CCO)CC2)c2sc3nc(-c4ccco4)c4c(c3c2n1)CCC4 | 87%
O=c1c2ccccc2nc(-c2ccccc2)n1CCN1CCOCC1 | -8%
O=C1Nc2ccccc2C12OCC1(CO2)COC2(OC1)C(=O)Nc1ccccc12 (centres undefined) | 4%
C=C[C@@]1(C)CC(=O)[C@@]2(O)[C@@]3(C)[C@H](O)CCC(C)(C)[C@@H]3[C@H](O)[C@H](OC(C)=O)[C@]2(C)O1 | 16%
Cc1ccc(Nc2nnc(-c3ccc4c(c3)OCO4)o2)c(C)c1 | 2%[5.75 µM]
O=C(NCCC1=CCCCC1)c1cnccn1 | -2%
COc1cccc(N2CC34C=CC(O3)C(C(=O)O)C4C2=O)c1 (centres undefined) | -9%
O=C(CN1CCN(c2ccc(F)cc2)CC1)Nc1nnc(-c2ccccc2)s1 | 16µM*[single pt active]
O=C(O)[C@@H]1CCCNC1 | -3%[12.8 µM]
Cc1cc(-n2nc(C)cc2C)nc(N)n1 | -3%
O=C(CN1CCC(O)(c2ccc3c(c2)OCO3)CC1)OC1CCCCC1 | 25%
CCCNC(=O)N1CCN(c2ncccn2)CC1 | 2%
CCOC(=O)c1c(NC(=O)CSc2nnc(C)c(=O)[nH]2)sc2c1CCC2 | -6%
CCC(OC(=O)c1ccco1)C(=O)NCc1ccc(C)cc1 (centres undefined) | 7%
CCC(Oc1ccccc1)C(=O)Nc1nnc(C(F)(F)F)s1 (centres undefined) | -11%
C=C(C)CSc1nnc([C@@H](NC(=O)OC(C)(C)C)C(C)CC)o1 (some centres undefined) | 20%
CN(C)c1nc(N)nc(-c2ccco2)n1 | 2%
ClCCOCOCCCl | -1%
CCCn1nnc(NC(=O)c2ccc(OCC)c(Cl)c2)n1 | -6%
CCC(CC)C(=O)Nc1cc(NC(=O)C(CC)CC)cc(C(=O)O)c1 | 2%
O=C(CN1CCC(n2nnc3cc(F)ccc32)CC1)Nc1ccccc1N1CCOCC1 | 85%
COC(=O)c1c(C)oc2ccc(OC(=O)N3CCOCC3)cc12 | 26%
Cc1onc(-c2ccccc2Cl)c1C(=O)OCn1nnc2ccccc2c1=O | 28%
O=S(=O)(Nc1nc2ccccc2nc1NCCN1CCOCC1)c1cccc(Cl)c1 | -3%
COc1ccc(C2CC(=O)c3cnc(NC(=O)c4cccc(OC)c4)nc3C2)cc1 (centres undefined) | 26%
CCc1nnc(NC(=O)C2CCCN2C(=O)NC2CCCCC2)s1 (centres undefined) | 5%
CCOc1ccccc1OCCOCCN1CC(C)OC(C)C1 (centres undefined) | 3%
Cn1c(/C=N/c2nc3ccccc3[nH]2)nc2ccccc21 | ?
O=C(NC1CCCCC1)C1CCN(S(=O)(=O)N2CCOCC2)CC1 | -3%

Compounds above with bromine (3):
SMILES | AmpC nodet inh
CCOC(=O)Cn1c(=O)c2c(nc(Br)n2Cc2ccc(Cl)cc2)n(C)c1=O | 83%
O=C(Nc1ccc2c(c1)OCCO2)C1CCN(C(=O)c2ccc(Br)cc2)CC1 | 51%
CC12CN3CC(C)(CN(C1)C3c1ccc(Br)cc1)C2=O (centres undefined) | -4%

Next entries follow.
SMILES | AmpC nodet inh
O=C(O)c1cc(=O)c2c(Cl)cc(Cl)cc2[nH]1 | 24%&-3%
COC(=O)C(Cc1ccc(O)cc1)NC(=O)CCC(=O)Nc1ccc(S(N)(=O)=O)cc1 (centres undefined) | 0%
Cc1onc(-c2ccccc2)c1C(=O)Nc1cccnc1 | -10%
CCOC(=O)c1ccc2c(c1)nc(SC/C(O)=C(\C#N)c1nc3ccccc3[nH]1)n2CC | -11%
Cc1cc(C)nc(-n2nc(C)cc2NC(=O)CN2CCc3ccccc3C2)n1 | 135%
Cc1ccc(N2CC(C(=O)Nc3nccs3)CC2=O)cc1 (centres undefined) | 4%
O=C(O)c1cc(=O)[nH]c(=S)[nH]1 | -2%[5.75 µM]
CC(=O)N1CCc2c(sc(NC(=O)CN3C(=O)CCC3=O)c2C(N)=O)C1 | 3%
COc1ccc(-c2nc3cnc(N(C)C)nc3n(-c3ccccc3)c2=O)cc1 | 6%
O=C(CSc1nnc(COc2ccc3c(c2)CCCC3)o1)Nc1ccc(F)cc1 | -9%
CCC(C)(C)C | -6%
Cc1ccc(-c2cc(C(F)F)nc(N3CCC(C)CC3)n2)cc1 | -7%
CCCS(=O)(=O)NCc1cn2cccc(C)c2n1 | 3%
CN1CCN(c2ncnc3ccc(-c4ccccc4C(F)(F)F)cc23)CC1 | 126%
NC[C@H](CC(=O)O)c1ccc(Cl)cc1 | 31%
COc1ccc(N(C(=O)c2cccc(OC)c2OC)C2C=CS(=O)(=O)C2)cc1 (centres undefined) | 13%
Cc1ccc(-c2ccc(=O)n(CC(=O)NCCN3CCCCC3C)n2)cc1 (centres undefined) | -3%

This is a subset; rates above refer to the full screens.
